A1 inh: A1 inhibition; actives 0.51% (n = 21,000); MEF A1-2A-BIM cells, caspase-Glo luminescence, 3 h; percent of clofoctol signal, DMSO as zero; caspase activation, % (no concentration beside the values); AID 2241;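 active = most replicate scores above 10, or exactly half above 10 with mean activity above 10; inconclusive = mean activity below 10 while half the replicates exceed 10; inactive = most replicate scores below 10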;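 note: effector caspase 3 and 7 activity cleaving a DEVD luciferin substrate; 50 nL library stock added to about 30 µL; numbers are from one replicate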
BJeLR viab HTS: BJeLR cell viability reduction | BJeLR fibroblasts viability, CellTiterGlo ATP luminescence, 48 h; HRASV12, hTERT and SV40 LT/ST transformed | viability loss activity score, % (concentration not given with the values) | actives 0.64% (n = 30,000) | AID 2275; in the data active = viability loss activity score above about 50%; inconclusive = no clear call, values can overlap the other calls; inactive = below about 35%; about a fifth of its hits are not listed in these tables;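 note: higher score means fewer live cells and less ATP luminescence; stock transfer was 50 or 100 nL into about 30 µL; 0% = vehicle wells and 100% = a reference killing control; one replicate is shown; the record names a cut of 85%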
Active calls of the source: *; ? = inconclusive; . = no result given; & = joins results of further samples. Only part of the results is shown; the hit share may differ from the screen's.

SMILES	A1 inh	BJeLR viab HTS
CC1OC(Oc2ccc(-c3cc(=O)c4c(O)cc(OC5OC(CO)C(O)C(O)C5O)cc4o3)cc2)C(O)C(O)C1O (centres undefined)	0.4	14.8
C[C@H]1CN([C@@H](C)CO)C(=O)c2cc(NS(=O)(=O)c3ccc(F)cc3)ccc2O[C@H]1CN(C)S(C)(=O)=O	-0.2	-1.3
O=C1c2cccc3cccc(c23)C(=O)N1NCCO	-0.4	9.4
Cc1cc(-n2c(=S)sc3c(=O)n(-c4ccc(F)cc4)c(SCC#N)nc32)ccc1Cl	0.3	-0.8
C[C@@H]1CN([C@@H](C)CO)C(=O)c2cc(NC(=O)Nc3ccccc3)ccc2O[C@H]1CN(C)C	-0.5	-3.1
Cc1noc(C)c1NC(=O)Nc1ccc2c(c1)C(=O)N([C@H](C)CO)C[C@@H](C)[C@@H](CN(C)Cc1ccc(-c3ccccc3)cc1)O2	1.2	-4.0
C[C@H](CO)N1C[C@H](C)[C@@H](CN(C)C)Oc2c(NC(=O)c3cnccn3)cccc2C1=O	.	-5.1
C[C@@H]1CN([C@@H](C)CO)C(=O)c2cccc(NS(=O)(=O)c3cn(C)cn3)c2O[C@H]1CN(C)S(=O)(=O)c1cn(C)cn1	.	-0.1
CCOc1ccc(-c2cc(C(=O)NCC3COc4ccccc4O3)c3ccccc3n2)cc1 (centres undefined)	-0.2	-3.6
NC[C@@H]1O[C@H](C23CC4CC(CC(C4)C2)C3)Cc2c1ccc(O)c2O	-1.3	3.7
O=C1NC(=O)C2(COC(c3ccccc3)OC2)S1 (centres undefined)	-0.1	-0.7
C[C@@H]1CN([C@H](C)CO)C(=O)c2cc(NC(=O)NC3CCCCC3)ccc2O[C@@H]1CN(C)S(=O)(=O)c1ccc(Cl)cc1	0.7	6.8
C[C@H](CO)N1C[C@H](C)[C@@H](CN(C)S(=O)(=O)c2cn(C)cn2)Oc2c(NC(=O)c3ccc(-c4nccs4)cc3)cccc2C1=O	.	-9.9
CC(C)(C)S(=O)(=O)c1ccc(-c2ccccc2)cc1	-0.5	-0.1
C[C@@H]1CN([C@H](C)CO)C(=O)c2cccc(NC(=O)C3CCCCC3)c2O[C@H]1CN(C)C(=O)Nc1ccc(F)cc1	.	0.8
N#CC1(c2ccccc2)CCN(S(=O)(=O)c2ccc(OC(F)(F)F)cc2)CC1	-0.7	8.8
O=C1CN(/N=C/c2ccc(-c3ccc([N+](=O)[O-])cc3)o2)C(=O)N1	-0.5&-1.5	4.5&-9.1
COC(=O)c1sccc1S(=O)(=O)N1CCN(C2c3ccccc3-c3ccccc32)CC1	-0.4	1.8
CC(C)NC(=O)Nc1cccc2c1O[C@@H](CN(C)C(=O)Nc1cccc3ccccc13)[C@@H](C)CN([C@H](C)CO)C2=O	.	-7.8
O=C(Nc1c2c(nn1-c1cccc(Cl)c1)CS(=O)C2)c1cccc(Br)c1 (centres undefined)	.	-3.1
Cc1noc(C)c1NC(=O)Nc1ccc2c(c1)C(=O)N([C@@H](C)CO)C[C@@H](C)[C@H](CN(C)Cc1ccc(Oc3ccccc3)cc1)O2	-0.9	2.3
Cc1nn(-c2ccccc2)nc1C(=O)Oc1c(Cl)cccc1Cl	0.7	1.5
COc1ccc(CN(C)C[C@H]2Oc3c(NC(=O)NC(C)C)cccc3C(=O)N([C@@H](C)CO)C[C@@H]2C)cc1	.	2.3
COC(=O)Nc1nc2ccc(C(=O)c3cccs3)cc2[nH]1	-0.7	?
C[C@@H]1CN([C@@H](C)CO)C(=O)c2cc(NC(=O)Nc3ccccc3)ccc2O[C@@H]1CN(C)Cc1ccc(C(F)(F)F)cc1	-0.2	-1.7

More entries:
SMILES	A1 inh	BJeLR viab HTS
CNC[C@H]1Oc2ccc(NC(=O)Nc3cccc4ccccc34)cc2C(=O)N([C@H](C)CO)C[C@@H]1C	0.1	-1.9
C[C@@H]1CN([C@H](C)CO)C(=O)c2cc(NC(=O)Cc3ccccc3)ccc2O[C@@H]1CN(C)S(C)(=O)=O	-0.1	3.1
OCCNC(=S)NC12CC3CC(CC(C3)C1)C2	-0.7	-3.8
CC1(C)OC(=O)C=C(c2ccc(Cl)cc2)O1	-0.3	6.0
N#CC(C#N)=C(N)Nc1ccccc1	0.0	6.2
CC(C)NC(=O)N(C)C[C@@H]1Oc2c(cccc2N(C)C)C(=O)N([C@@H](C)CO)C[C@@H]1C	.	-3.7
CCOC(=O)c1cc(COc2c(Cl)cccc2Cl)on1	0.9	8.3
O=C(NCc1ccccc1)C1CC(c2ccc(F)cc2)=NO1 (centres undefined)	.	-3.6
C[C@H](CO)N1C[C@H](C)[C@H](CN(C)S(C)(=O)=O)Oc2c(NC(=O)C3CCOCC3)cccc2C1=O	.	6.4
CCOc1ccc(NC(=O)C(C)Oc2ccccc2)cc1 (centres undefined)	0.6	0.4
C[C@@H]1CN([C@@H](C)CO)C(=O)c2cc(NS(C)(=O)=O)ccc2O[C@@H]1CN(C)C(=O)Nc1ccc2c(c1)OCO2	-0.2	1.3
COc1ccc(S(=O)(=O)N(C)C[C@H]2Oc3c(NC(=O)NC(C)C)cccc3C(=O)N([C@H](C)CO)C[C@@H]2C)cc1	.	-0.5
COc1ccc(NC(=O)N(C)C[C@H]2Oc3ccc(NC(=O)Nc4cccc5ccccc45)cc3C(=O)N([C@H](C)CO)C[C@H]2C)cc1	-0.2	1.2
C[C@H](CO)N1C[C@H](C)[C@H](CN(C)CC2CC2)Oc2c(NS(=O)(=O)c3ccccc3)cccc2C1=O	.	0.8
COc1ccc(N2C(=O)CC(N(C(C)=O)c3ccc(OC)cc3)C2=O)cc1 (centres undefined)	.	4.4
C[C@H](CO)N1C[C@H](C)[C@H](CN(C)S(=O)(=O)c2ccc(F)cc2)Oc2c(NC(=O)Nc3ccc4c(c3)OCO4)cccc2C1=O	.	1.5
CC12CC3(C)CC(C)(C1)CC(C(=O)NC(=S)NC(C)(C)C)(C2)C3	0.4	1.7
C[C@@H]1CN([C@H](C)CO)C(=O)c2cccc(NS(=O)(=O)c3ccc(F)cc3)c2O[C@@H]1CN(C)S(C)(=O)=O	.	-4.2
C[C@@H]1CN([C@@H](C)CO)C(=O)c2cc(NC(=O)C3CC3)ccc2O[C@H]1CN(C)S(C)(=O)=O	-0.5	2.2
CNC[C@@H]1Oc2ccc(NC(=O)Nc3ccc4c(c3)OCO4)cc2C(=O)N([C@H](C)CO)C[C@@H]1C	0.6	-4.6
Cc1cc(C(=O)Nc2cccc3c2O[C@H](CN(C)S(=O)(=O)c2ccc(Cl)cc2)[C@@H](C)CN([C@H](C)CO)C3=O)n(C)n1	.	1.0
O=C(NCCS(=O)(=O)Cc1ccc(F)cc1)c1c(F)cccc1Cl	1.2	-4.0
C[C@H](CO)N1C[C@H](C)[C@@H](CN(C)Cc2ccc(C(=O)Nc3ccccc3N)cc2)Oc2ccc(NS(C)(=O)=O)cc2C1=O	.	-1.5
COc1ccc(S(=O)(=O)Nc2cccc3c2O[C@@H](CN(C)C(=O)Nc2ccc(F)cc2)[C@@H](C)CN([C@H](C)CO)C3=O)cc1	.	2.7
CC1CC(=O)C2=C(O1)OC1(C)CCC3(O)C(C)(C)C=CC(=O)C3(C)C1C2 (centres undefined)	0.4	1.2

(continued)
SMILES	A1 inh	BJeLR viab HTS
C[C@@H]1CN([C@@H](C)CO)C(=O)c2cccc(NC(=O)C3CCCCC3)c2O[C@@H]1CN(C)Cc1ccc(Cl)c(Cl)c1	.	-8.9
O=C(CC12CC3CC(CC(C3)C1)C2)NCc1ccc2c(c1)OCO2	.	8.3
Cc1onc(-c2ccccc2)c1C(=O)N1CCCN2C(=O)c3ccccc3C21 (centres undefined)	0.3	3.1
Cc1ccc(S(=O)(=O)Nc2ccc3c(c2)C(=O)N([C@H](C)CO)C[C@@H](C)[C@@H](CN(C)S(=O)(=O)c2ccc(C)cc2)O3)cc1	-0.4	-3.9
O=C(Nc1c(-c2cccs2)nc2ccccn12)c1cccc(C(F)(F)F)c1	.	-5.1
NNC(=O)CCCNc1ccc(Cl)cc1	0.1	3.7
COc1ccc(CN(C)C[C@H]2Oc3ccc(NS(=O)(=O)c4ccc(OC)cc4)cc3C(=O)N([C@@H](C)CO)C[C@H]2C)cc1	-0.2	5.3
O=C(CSc1c2c(nc3ccccc13)CCC2)N1CCCC1	.	-5.3
O=C1/C(=C/c2c(NCC3CCCO3)nc3ccccn3c2=O)SC(=S)N1C1CCCCC1 (centres undefined)	.	-2.4
C[C@H](CO)N1C[C@H](C)[C@@H](CN(C)S(=O)(=O)c2ccc(F)cc2)Oc2c(NC(=O)Nc3ccc(C(F)(F)F)cc3)cccc2C1=O	.	-0.6
COc1ccc(S(=O)(=O)N(C)C[C@H]2Oc3ccc(NC(=O)CCCN(C)C)cc3C(=O)N([C@H](C)CO)C[C@H]2C)cc1	0.3	-0.4
C[C@H](CO)N1C[C@H](C)[C@H](CN(C)C(=O)Nc2ccc(C(F)(F)F)cc2)Oc2c(NC(=O)C3CC3)cccc2C1=O	.	-0.5
Nc1nc(N(Cc2ccccc2)Cc2ccccc2)nc(C(F)(F)F)n1	-0.5	-1.3
Cc1ccc(S(=O)(=O)Nc2ccc3c(c2)C(=O)N([C@@H](C)CO)C[C@H](C)[C@H](CN(C)C)O3)cc1	-0.2	4.2
CCCCCCCCCCCCCC(=O)N[C@@H](C)[C@H](O)c1ccccc1	1.0	2.4
O=C(NCCC1=CCCCC1)c1ccc2c(c1)sc1nc(-c3ccccc3)cn12	0.1	0.1
COc1cc2ncnc(Nc3cccc(Br)c3)c2cc1OC	3.4	2.4
CN(C)[C@@H]1C(=O)C(C(N)=O)C(=O)[C@@]2(O)C(=O)C3C(=O)c4c(O)ccc(Cl)c4[C@@H](O)[C@H]3C[C@@H]12 (some centres undefined)	0.8	2.7
COc1cccc(-c2nc(S(=O)(=O)c3ccc(C)cc3)c(N(C)C)o2)c1	.	1.0
COc1ccccc1NC(=O)Cc1ccc(Br)cc1	-0.7	-3.0
Cc1ccc(NC(=O)c2cc(=O)[nH]c(=O)[nH]2)cc1	-0.6	-5.3
COc1ccc(S(=O)(=O)N(C)C[C@H]2Oc3ccc(NC(=O)Cc4ccccc4)cc3C(=O)N([C@H](C)CO)C[C@@H]2C)cc1	-0.1	2.2
COC(=O)CN1C(=S)N(c2ccccc2)C(=O)C1CC(=O)Nc1ccc(F)cc1 (centres undefined)	.	-5.6
Cc1noc(C)c1S(=O)(=O)Nc1ccc2c(c1)C(=O)N([C@H](C)CO)C[C@@H](C)[C@@H](CN(C)CC1CCCCC1)O2	-1.3	3.0
COc1ccc(NC(=O)N(C)C[C@@H]2Oc3ccc(NS(=O)(=O)c4ccc(Cl)cc4)cc3C(=O)N([C@@H](C)CO)C[C@@H]2C)cc1	-0.5	-1.8

Compound profiles, as listed above. Order of values: A1 inh	BJeLR viab HTS
Record of `C[C@@H]1CN([C@@H](C)CO)C(=O)c2cccc(NC(=O)C3CCCCC3)c2O[C@@H]1CN(C)Cc1ccc(Cl)c(Cl)c1` : .	-8.9
Record of `COc1ccccc1NC(=O)Cc1ccc(Br)cc1` : -0.7	-3.0

Part of the list above, field by field:
COc1cccc(-c2nc(S(=O)(=O)c3ccc(C)cc3)c(N(C)C)o2)c1
  A1 inh: .; BJeLR viab HTS: 1.0

Cc1noc(C)c1S(=O)(=O)Nc1ccc2c(c1)C(=O)N([C@H](C)CO)C[C@@H](C)[C@@H](CN(C)CC1CCCCC1)O2
  A1 inh: -1.3; BJeLR viab HTS: 3.0

Cc1ccc(S(=O)(=O)Nc2ccc3c(c2)C(=O)N([C@@H](C)CO)C[C@H](C)[C@H](CN(C)C)O3)cc1
  A1 inh: -0.2; BJeLR viab HTS: 4.2

Structures from the list above containing a tert-butyl group (2):
SMILES	A1 inh	BJeLR viab HTS
CC(C)(C)S(=O)(=O)c1ccc(-c2ccccc2)cc1	-0.5	-0.1
CC12CC3(C)CC(C)(C1)CC(C(=O)NC(=S)NC(C)(C)C)(C2)C3	0.4	1.7

Remaining list, next part
SMILES	A1 inh	BJeLR viab HTS
COc1ccc(S(=O)(=O)N(C)C[C@@H]2Oc3ccc(NS(=O)(=O)c4ccc(F)cc4)cc3C(=O)N([C@H](C)CO)C[C@@H]2C)cc1	1.1	-1.2
O=S(=O)(NCCCn1ccnc1)c1ccc2ccccc2c1	0.3	7.2
C[C@@H]1CN([C@H](C)CO)C(=O)c2cccc(NS(=O)(=O)c3cccs3)c2O[C@H]1CN(C)C(=O)Nc1ccc2c(c1)OCO2	.	0.8
COc1ccc(CN(C)C[C@@H]2Oc3c(NS(=O)(=O)c4ccc(Cl)cc4)cccc3C(=O)N([C@H](C)CO)C[C@@H]2C)cc1	.	-1.1
C[C@H]1CN([C@@H](C)CO)C(=O)c2cccc(NC(=O)C3CCCCC3)c2O[C@H]1CN(C)S(=O)(=O)c1ccc(Cl)cc1	.	3.6
CC(C)NC(=O)N(C)C[C@@H]1Oc2c(NC(=O)Nc3cccc4ccccc34)cccc2C(=O)N([C@@H](C)CO)C[C@@H]1C	.	5.1
O=c1c2cc(NC(=S)NCc3ccccn3)ccc2nc2n1CCCCC2	.	2.2
Cc1cc(CNC(=O)c2cc(C)n(C)n2)c(C(F)(F)F)o1	0.7	14.1
CC1CCN(C(=O)c2ccccc2Br)CC1	0.5	1.2
OCC(CO)(CO)NC(=S)Nc1cc(Cl)cc(Cl)c1	-0.2	-3.3
Nc1nc(CSC(=S)N2CCCCC2)nc(Nc2ccccc2)n1	.	-3.3
CCOc1ccc(CC(=O)NCc2cn3ccc(C)cc3n2)cc1	0.7	0.3
C[C@@H]1CN([C@H](C)CO)C(=O)c2cccc(NC(=O)c3nc4ccccc4s3)c2O[C@@H]1CN(C)Cc1ccc(Oc2ccccc2)cc1	.	-4.5
COC(=O)/C=C1\SC(=Nc2ccccc2)NC1=O	.	2.0

From PubChem BioAssay
